Sa growth 42C – blocks Staphylococcus aureus growth | S. aureus RN4220 growth, OD600, 20 h, 42 °C; active compounds read low | relative growth, % (no concentration beside the values) | hit rate 0.53% among 170,000;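 active = growth at 42 °C up to 50% and 20 or more points under that at 30 °C, or under 10% at both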;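 note: 300 nL library stock went into each well; scaled to the means of positive and negative controls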
GIV-Gai inh – blocks GIV peptide binding to rat Galpha-i3; P08753; Galpha-i3/FITC-GIV peptide fluorescence polarization, 90 min; active compounds read low; scaled: aluminum fluoride 0%, vehicle 100%; percent of control (FP), % (no concentration beside the values); hit rate 0.42% among 210,000; AID 1224905;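 active = replicate mean at 85% of control or lower, very high polarization wells dropped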;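 note: wells of about 15 µL received 100 nL stock; the first replicate is given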
Target sequence (P08753 whole entry, looked up): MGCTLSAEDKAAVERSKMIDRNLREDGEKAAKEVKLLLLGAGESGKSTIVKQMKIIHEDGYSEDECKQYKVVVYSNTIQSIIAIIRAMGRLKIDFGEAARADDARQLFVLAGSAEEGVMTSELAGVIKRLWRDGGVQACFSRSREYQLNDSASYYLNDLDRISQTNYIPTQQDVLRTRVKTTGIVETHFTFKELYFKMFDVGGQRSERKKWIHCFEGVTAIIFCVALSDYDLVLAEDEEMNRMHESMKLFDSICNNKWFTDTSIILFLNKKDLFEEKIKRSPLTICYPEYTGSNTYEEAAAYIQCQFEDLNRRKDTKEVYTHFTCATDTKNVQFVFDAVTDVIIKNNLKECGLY
HCMV NEC inh – cytomegalovirus nuclear egress complex inhibition | HTRF UL50-UL53 interaction, normalized percent inhibition | inhibition, % (concentration not given with the values) | hit rate 0.15% among 190,000;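 active = both replicates at 50% or more, plus weaker picks with an unusually low signal ratio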;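 note: stock transfer was 100 nL into about 20 µL; 0% = negative control wells and 100% = wells with untagged competitor protein; inactives centre near -12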
Sa growth 42C second temp – also measured in Sa growth 42C; calls as there; relative growth, %; measured here: growth at 30 °C;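 optical density after 20 h as mean of two plates; 100% = untreated growth and lower means inhibition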
The depositor's hits bear a star; / = no result given; & = joins results of further samples. Compounds as they come; overall some 0.83% were active at least once.

SMILES | Sa growth 42C | Sa growth 42C second temp | GIV-Gai inh | HCMV NEC inh
CCOC(=O)C1CCCN(C(=O)Cn2nc(C)n3c(cc4c(OC)cccc43)c2=O)C1 (stereo not given) | 108 | 86 | 103 | -55
O=C(COC(=O)CCC1CCCC1)Nc1ccccc1Br | 100 | 97 | / | -8
CCc1c(C)sc(NC(=O)/C=C/c2cccs2)c1C(=O)OC | 154 | 90 | 107 | -14
CC1C(=O)Nc2ccc(S(=O)(=O)NCc3ccc(N(C)C)cc3)cc2NC1=O (stereo not given) | 86 | 98 | 104 | 1
COCCOC(=O)c1c(C)oc2ccc(NS(=O)(=O)c3cc([N+](=O)[O-])ccc3Cl)cc12 | / | / | 112 | -37
CC(C)[C@H](NC(=O)c1ccc(C(C)(C)C)cc1)C(=O)NCc1ccco1 | 106 | 92 | / | -13
COC(=O)c1cc(CSc2nnc3c(Cl)cc(Cl)cn23)oc1C | 68 | 90 | / | -58
Cc1cc(C)n2nc(SCC(=O)NCc3ccc(Cl)cc3)nc2n1 | 95 | 79 | 99 | /
CCOC(=O)c1ccccc1NC(=O)Cn1c(=O)n(Cc2ccc(F)cc2)c(=O)c2sc3ccccc3c21 | / | / | 99 | -4
Oc1ccccc1C1=NN2C(C1)c1ccccc1OC21CCCC1 (stereo not given) | 100 | 84 | 100 | -11
CC(C)CNC(=O)c1cccc(Cn2cc(Cl)cn2)c1 | 97 | 81 | 101 | 3
CC(C(=O)NCCc1ccccc1)n1c2ccccc2c2cn[nH]c(=O)c21 (stereo not given) | 106 | 80 | 102 | -16
Cc1sc2nc(Cn3nnc(-c4cccc(C(F)(F)F)c4)n3)[nH]c(=O)c2c1C | 97 | 93 | / | -2
O=C(O)CCN1C(=O)c2ccncc2C1=O | 93 | 88 | / | -14
CCc1cc(=O)n2c(nc3ccccc32)[nH]1 | / | / | 100 | 20
COCCN1C(=O)c2ccccc2C(C(=O)NC2CC2)C1c1cccs1 (stereo not given) | 73 | 89 | 98 | -13
Cc1cc(N2CCN(C)CC2)n2nc(C(F)(F)F)c(-c3ccccc3Cl)c2n1 | / | / | 105 | 4
O=C(NCCSc1ccccc1)C1CCCN1S(=O)(=O)c1ccc2ccccc2c1 (stereo not given) | 106 | 82 | / | 0
CN1c2ccccc2C(C)(C)C12C=Cc1cc(O)ccc1O2 (stereo not given) | 77 | 21 | 109 | -26
COc1cc(/C=c2\sc3nc4ccccc4n3c2=O)ccc1OCc1ccc(Br)cc1 | / | / | 107 | -12
COC(=O)C(C)(C)NC(=O)Nc1ccc(Cl)cc1Cl | 99 | 97 | 112 | 5
CN1/C(=C\C(=O)c2ccccc2)C(C)(C)c2ccccc21 | 95 | 102 | / | 23
O=C(NC1CCCc2ccccc21)C1CCCN(c2nnc(-n3cccc3)s2)C1 (stereo not given) | 108 | 71 | 103 | /
CCCCc1nc2c3c(C)c(C)n(-c4ccc(C)cc4)c3ncn2n1 | / | / | 105 | -28
O=C(Nc1nn[nH]n1)C1c2ccccc2Oc2ccccc21 | 89 | 101 | 96 | /
COc1ccc(NC(=O)c2sc3nc(C(F)(F)F)cc(C)c3c2N)cc1OC | 92 | 104 | 129 | -9
N#C/C(=C(/O)c1ccc(C(=O)c2ccccc2)cc1)c1nc2ccccc2s1 | 74 | 27 | 102 | /
O=C(NC1CCCC1)c1cnc(N2CCCC2)nc1 | 81 | 87 | 106 | /
COc1ccc(-n2cnc3cc(C(=O)N4CCCCC4)ccc32)cc1 | 97 | 76 | / | -1
CC1CCN(S(=O)(=O)c2ccc3c(c2)N(CC(=O)NC(C)c2ccccc2)C(=O)CS3)CC1 (stereo not given) | 102 | 80 | 102 | -29
COc1ccc(C2=CC(=C(C#N)C#N)c3cc4c(cc3O2)OCO4)cc1 | 123 | 101 | / | 4
CCOc1cc(C(=O)OCC(=O)c2c(C)[nH]c3ccccc23)ccc1OCC(=O)N1CCOCC1 | 107 | 93 | / | -7
Cc1ccc(Cl)cc1N1CCN(C(=O)CN2C(=O)CSc3c2c(C)nn3-c2ccccc2)CC1 | 91 | 91 | 101 | /
O=C(NC1CCCCC1)N(Cc1ccccc1)Cc1cc2cc3c(cc2[nH]c1=O)OCCO3 | 104 | 92 | 109 | -19
CCOC(=O)CC1(NC(=O)N2Cc3c(sc4c3CCCC4)-n3cccc3C2CC)CCCCC1 (stereo not given) | / | / | 111 | -6
CCc1nn(CC(=O)NCCc2ccc(OC)cc2OC)c(=O)c2cc3sccc3n12 | 91 | 100 | 97 | 12
O=C(COc1ccccc1)N(Cc1cccnc1)c1nc2c(F)cccc2s1 | 141 | 77 | 102 | /
CCc1ccc(NS(=O)(=O)c2cc(Br)cc3c2N(C(C)=O)CC3)cc1 | 99 | 91 | 108 | 0
Cc1occc1-c1nnc(SCC(=O)c2ccc3c(c2)CCN3S(C)(=O)=O)n1C | 89 | 88 | / | -5
CCOC(=O)c1ccc(-n2cnc3c2C(=O)c2ccccc2C3=O)cc1 | 100 | 92 | / | -44

Part of the list above in order of count of non-hydrogen atoms, ascending.
SMILES | Sa growth 42C | Sa growth 42C second temp | GIV-Gai inh | HCMV NEC inh
O=C(O)CCN1C(=O)c2ccncc2C1=O | 93 | 88 | / | -14
O=C(NC1CCCC1)c1cnc(N2CCCC2)nc1 | 81 | 87 | 106 | /
CC(C)CNC(=O)c1cccc(Cn2cc(Cl)cn2)c1 | 97 | 81 | 101 | 3
O=C(COC(=O)CCC1CCCC1)Nc1ccccc1Br | 100 | 97 | / | -8
CCc1c(C)sc(NC(=O)/C=C/c2cccs2)c1C(=O)OC | 154 | 90 | 107 | -14
COC(=O)c1cc(CSc2nnc3c(Cl)cc(Cl)cn23)oc1C | 68 | 90 | / | -58
Cc1cc(C)n2nc(SCC(=O)NCc3ccc(Cl)cc3)nc2n1 | 95 | 79 | 99 | /
COc1ccc(-n2cnc3cc(C(=O)N4CCCCC4)ccc32)cc1 | 97 | 76 | / | -1
CCOC(=O)c1ccc(-n2cnc3c2C(=O)c2ccccc2C3=O)cc1 | 100 | 92 | / | -44
CC(C(=O)NCCc1ccccc1)n1c2ccccc2c2cn[nH]c(=O)c21 (stereo not given) | 106 | 80 | 102 | -16
Cc1sc2nc(Cn3nnc(-c4cccc(C(F)(F)F)c4)n3)[nH]c(=O)c2c1C | 97 | 93 | / | -2
Cc1occc1-c1nnc(SCC(=O)c2ccc3c(c2)CCN3S(C)(=O)=O)n1C | 89 | 88 | / | -5
O=C(NCCSc1ccccc1)C1CCCN1S(=O)(=O)c1ccc2ccccc2c1 (stereo not given) | 106 | 82 | / | 0
CCOC(=O)C1CCCN(C(=O)Cn2nc(C)n3c(cc4c(OC)cccc43)c2=O)C1 (stereo not given) | 108 | 86 | 103 | -55
CC1CCN(S(=O)(=O)c2ccc3c(c2)N(CC(=O)NC(C)c2ccccc2)C(=O)CS3)CC1 (stereo not given) | 102 | 80 | 102 | -29
CCOC(=O)CC1(NC(=O)N2Cc3c(sc4c3CCCC4)-n3cccc3C2CC)CCCCC1 (stereo not given) | / | / | 111 | -6
CCOc1cc(C(=O)OCC(=O)c2c(C)[nH]c3ccccc23)ccc1OCC(=O)N1CCOCC1 | 107 | 93 | / | -7
CCOC(=O)c1ccccc1NC(=O)Cn1c(=O)n(Cc2ccc(F)cc2)c(=O)c2sc3ccccc3c21 | / | / | 99 | -4

Continued.
SMILES | Sa growth 42C | Sa growth 42C second temp | GIV-Gai inh | HCMV NEC inh
N#Cc1ccc(Cl)cc1NC(=O)CSC(=O)c1ccccc1 | 88 | 69 | / | -2
COc1ccc(CNC(=O)CCc2c(C)nn(-c3ccc(N4CCOCC4)nn3)c2C)cc1 | 89 | 98 | 105 | /
CCc1ccc(CNc2ncnc3onc(-c4ccc(Cl)cc4)c23)cc1 | 100 | 86 | 103 | -10
Cc1cc(Cl)ccc1NC(=O)CCCn1nc(C)c2c(C)n(-c3ccccc3)nc2c1=O | 91 | 99 | 104&103 | -10
CC(=O)N1CCN(C(=O)CNc2cc(C(F)(F)F)ccc2OCC(F)(F)F)CC1 | 93 | 87 | / | -11
C/C(=N\NC(=O)c1ccc(CN2CCOCC2)cc1)c1ccc2c(c1)OCCO2 | 103 | 114 | 107 | -8
O=C(Nc1ccc(OCc2ccccc2)cc1)NC1CCCc2ccccc21 (stereo not given) | 91 | 87 | 105 | 14
Cn1c(=S)[nH]c2cc(S(N)(=O)=O)ccc21 | 114 | 92 | / | -21
NC(=O)CSc1nnc(CNc2ccc(Cl)cc2)n1Cc1ccccc1 | 107 | 99 | 99 | -24
Cc1ccc(-n2nnc(C(=O)OCc3ccc(F)cc3)c2C)cc1Cl | / | / | 98 | -23
CCn1c(C(=O)N2CCCC(C(=O)NC(C)c3ccc4c(c3)OCCO4)C2)cc2sccc21 (stereo not given) | 103 | 65 | 113 | /
CC(=O)c1cccc(NC(=O)Cn2c(=O)oc3cc(S(=O)(=O)NCc4ccccc4)ccc32)c1 | 128 | 93 | 108 | /
Cc1cc(C)n(C(=O)CSc2ccc(C(C)(C)C)cc2)n1 | 102 | 96 | / | -18
CCc1ccc(-c2nc(-c3cc(C(=O)O)[nH]n3)c(C)s2)cc1 | / | / | 100 | -124
CN1CCC(OC(=O)COc2ccc(F)cc2)CC1 | 98 | 88 | 104 | -4
Cc1ccccc1C(=O)Nc1ccc(C(=O)OCc2cc(=O)n3nc(C4CC4)sc3n2)cc1 | 81 | 81 | 122 | /
COCC(C)n1c(C)cc(C(=O)COC(=O)C2COc3ccccc3O2)c1C (stereo not given) | 88 | 93 | / | -16
CCCn1c(C)ccc(-c2noc(CCCC(=O)NC(C)c3ccccc3)n2)c1=O (stereo not given) | / | / | 103 | -41
N#CC(C#N)=C1c2cc(S(=O)(=O)N3CCCCC3)ccc2-c2ccc(S(=O)(=O)N3CCCCC3)cc21 | 104 | 87 | / | -20
N#Cc1ccccc1NC(=S)Nc1ccccc1 | 93 | 85 | / | -5
CCc1ccc(C(=O)NC(Cc2c[nH]c3ccccc23)C(=O)OCC(=O)c2ccc(Br)cc2)cc1 (stereo not given) | 96 | 100 | 105 | /
Cc1onc(-c2ccccc2)c1C(=O)Nc1ccnn1C1CCCCC1 | 87 | 86 | / | -14
CN(Cc1ccccc1)C(=O)c1cc2c(Cl)nc3ccccc3c2s1 | 98 | 93 | 104 | /
Cc1nn(C(=O)c2ccccc2)c(C)c1Sc1ccc(Cl)cc1 | 91 | 93 | 96 | -26
CCOc1ccc2nc(N3CCC(C(=O)NCCc4ccc(OC)cc4OC)CC3)sc2c1 | 108 | 87 | 106 | 0
O=C(O)c1cc(N=Cc2ccc(N3CCCC3)c(F)c2)ccc1O | 105 | 83 | 101 | /
O=C(C1CC(c2c(F)cccc2Cl)=NO1)N1CCCCC1 (stereo not given) | / | / | 103 | -26
CCc1c(C)sc(NC(=O)C2CC3CCC2C3)c1C(=O)OC (stereo not given) | 74 | 103 | / | 3
Cc1ccc(OCC(=O)O)c(-c2ccno2)c1 | 69 | 90 | / | 1
CCCOc1ccc(C(=O)Nc2cccc(NC(=O)c3cccc(Cl)c3)c2)cc1 | 90 | 86 | 101 | -34
O=C(CCc1ccc(O)cc1)N/N=C/c1coc2ccccc2c1=O | 96 | 93 | 105 | 8
COc1ccc(NC(=O)C2CCCN2c2cccc(C(F)(F)F)c2)cc1OC (stereo not given) | 105 | 77 | 97 | /
Cc1ccc2c(c1)c(=O)c(S(=O)(=O)c1ccc(C)c(C)c1)cn2CC(=O)Nc1ccc(F)cc1 | / | / | 101 | -5
Cc1ccccc1CN1C(=O)c2ccccc2Sc2ccc(C(=O)OCc3ccco3)cc21 | 89 | 91 | 101 | /
COC(=O)c1ccc(C2c3c(oc4ccccc4c3=O)C(=O)N2c2nc(C)c(C(=O)OC)s2)cc1 (stereo not given) | 101 | 91 | 98 | -19
CCN1CCOC(=O)C1CC(=O)Nc1cc(Cl)ccc1OC (stereo not given) | 61 | 53 | 106 | 5
O=C(COCc1cc(-c2cccs2)on1)NCc1cccc(Cl)c1 | 99 | 100 | 106 | /
O=c1c(=Nc2ccc(O)cc2)c(=O)c2ccccc12 | 128 | 61 | / | -38
Cc1ccc(S(=O)(=O)N2N=NC3C4CC(C5CC=CC54)C32)cc1 (stereo not given) | 95 | 85 | / | -13
C/C(=N\NC(=O)Cc1cccs1)c1ccc(S(=O)(=O)N2CCCC2)cc1 | 91 | 95 | / | -34
NC(=O)CN1C(=O)Cc2ccccc2C1=O | / | / | 63* | 76
O=C(CSc1nc2ccsc2c(=O)n1Cc1ccccn1)Nc1nccs1 | 94 | 87 | 100 | 3
O=S(=O)(Cc1ccc2nonc2c1)c1ccc(C(F)(F)F)cn1 | 96 | 93 | 98 | -103
CC(C)N(Cc1nnc(-c2ccccc2)o1)C(=O)CN1C(=O)COc2ccccc21 | 101 | 90 | / | -4

From PubChem BioAssay
